Bioassay records from PubChem.
UUG fidelity: modulators of start codon recognition fidelity in yeast; S. cerevisiae UUG-firefly luciferase reporter, luminescence/redox ratio; activity score, % at 18.7 µM; 0.13% of 350,000 active; AID 602363;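 active means replicate mean at a twofold rise or more, about +100% in these data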;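 further: firefly luciferase made from a UUG start codon reports start codon fidelity; reporter light over untreated wells divided by growth signal over untreated wells; some hits fall short of that in this replicate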
HIV Env fusion: HIV envelope-mediated fusion inhibition; HeLa-JRFL Env/CEM21 cell fusion, luciferase; inhibition, % at 12.3 µM; 1.1% of 360,000 active;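 active means mean replicate inhibition score of at least 50 and every replicate individually at or above 50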;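 further: 0% = plate neutral controls and 100% = maraviroc near 300 nM; one replicate is shown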
Rce1 inhib: blocks yeast Ras-converting enzyme; Q03530; 0.27% of 290,000 active; yeast membranes, quenched prenylated peptide cleavage fluorescence; calls only; AID 2563;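 active means fall in fluorescence gain of 50% or more versus controls, with final raw signal at or below 3038400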;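 further: plate controls were neutral control wells for no effect and wells lacking membranes for full effect; tested at 10 µM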
PABP polyA inh: blocks human PABP binding to poly(A) RNA. AID 2014. 1% of 290,000 active. fluorescence polarization. inhibition, % at 35 µM. P11940;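 active means 50% or more with normal probe brightness, or confirmed in later tests; about a fifth of its hits are not listed in these tables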;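 further: calls also rest on retests at 20 µM and on dose response follow-up; controls were probe without protein and protein plus probe with vehicle; some compounds called inactive have numbers as strong as hits; many hits fall short of the cut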
Target sequence (P11940 whole entry, looked up): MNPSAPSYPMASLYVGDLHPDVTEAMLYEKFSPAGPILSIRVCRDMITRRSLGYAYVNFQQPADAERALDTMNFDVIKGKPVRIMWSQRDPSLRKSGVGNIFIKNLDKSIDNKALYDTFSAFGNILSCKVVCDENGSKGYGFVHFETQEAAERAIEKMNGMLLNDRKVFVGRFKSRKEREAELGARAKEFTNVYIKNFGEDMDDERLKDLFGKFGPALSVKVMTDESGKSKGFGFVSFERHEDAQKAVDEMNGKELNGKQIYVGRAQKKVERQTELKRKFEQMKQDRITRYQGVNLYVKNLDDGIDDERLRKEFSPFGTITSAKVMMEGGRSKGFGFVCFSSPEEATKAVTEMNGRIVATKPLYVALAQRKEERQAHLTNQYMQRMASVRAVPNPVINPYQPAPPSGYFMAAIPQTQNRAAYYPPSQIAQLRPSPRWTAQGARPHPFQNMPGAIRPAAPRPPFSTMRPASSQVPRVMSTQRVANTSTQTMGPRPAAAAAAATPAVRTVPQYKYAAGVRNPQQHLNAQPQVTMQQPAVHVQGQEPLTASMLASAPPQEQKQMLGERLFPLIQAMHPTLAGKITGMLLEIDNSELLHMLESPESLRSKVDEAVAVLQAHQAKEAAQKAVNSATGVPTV
MT1-MMP act inh: inhibitors of human MT1-MMP activation | GFP/RFP ratio change, % at 20 µM | P50281 | HT1080 RFP-PRO-GFP cells, GFP/RFP ratio fluorescence, overnight; percent of plate control window, DMSO zero | 0.061% of 360,000 active;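 active means GFP/RFP ratio change of at least 30% with cell ATP level not reduced by more than half and red fluorescence within 50% of control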; further: strong numbers were not always called active
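Assay system: HT1080 RFP-PRO-GFP cells | Dosing: 20 µM single dose, 1% DMSO | Incubation: Cells overnight before dosing, compound overnight, 37 °C, 5% CO2 | Evaluation: GFP/RFP fluorescence ratio | Control set: DMSO-only wells and HT1080 RFP-L50D-GFP cell wells as references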
CSC inhib: cancer stem cell inhibition; cancer stem cell-like cells viability, luminescence; inhibition, % at 7.5 µM; 1.1% of 300,000 active;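 active means mean at 75% or more and at least half the replicates too; tested in HMLE shEcad cells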;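 further: 0% = median of negative and 100% = median of positive control wells; the first replicate is given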
eIF4H FP inh: inhibitors of RNA binding by human eIF4H; Q15056; AID 2012; 0.94% of 290,000 active; inhibition, % at 35 µM; eIF4H fluorescence polarization binding assay;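 active means 50% or more with normal probe brightness, or confirmed in later tests; about a fifth of its hits are not listed in these tables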;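 further: calls also rest on retests at 20 µM and on dose response follow-up; 0% = protein and probe with vehicle and 100% = probe without protein; strong numbers were not always called active; many hits fall short of the cut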
MT1-MMP act inh RFP: also measured in MT1-MMP act inh; calls as there; RFP signal change, %; measured here: RFP expression control read;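 0 = vehicle wells; hits needed this value within 50% of zero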
An asterisk follows results filed as active; i = inactive; · = no result given; & = joins results of further samples.

SMILES | UUG fidelity | HIV Env fusion | Rce1 inhib | PABP polyA inh | MT1-MMP act inh | MT1-MMP act inh RFP | CSC inhib | eIF4H FP inh
CN(CC(=O)NC(=O)Nc1ccccc1F)Cc1ccccc1F | -18.8 | 65.6* | · | · | -3.4 | -6.1 | -8.8 | ·
COCCN(CCOC)C(=O)c1sc2nc(-c3ccccc3)cn2c1C | 16.0 | -24.6 | i | 4.3 | 3.9 | 4.9 | -8.4 | -3.3
COc1ccc(-c2n[nH]c(C(F)(F)F)c2-c2cc3ccccc3o2)c(O)c1 | 2.6 | · | i | -13.7 | 1.2 | -10.9 | 102.4* | -12.7
CC(=O)OCC(=O)N1CCN(c2ccc([N+](=O)[O-])cc2)CC1 | · | -18.5 | i | -13.6 | 0.4 | -0.6 | -16.1 | -5.8
Cc1ccc(S(=O)(=O)NC(CC(C)C)C(=O)NCC(C)(C)N2CCOCC2)cc1 (stereo unspecified) | -6.3 | -31.5 | i | · | 4.3 | -0.3 | -6.2 | ·
COCCN(CCOC)C(=O)C12CCC(C)(C(=O)C1)C2(C)C (stereo unspecified) | -11.3 | -139.7 | i | -0.6 | -0.2 | 2.8 | -5.8 | -5.3
CC(C)(C)OC(=O)N[C@@H](CCCCNC(=O)OCc1ccccc1)c1nnc([C@H](CCCCNC(=O)OCc2ccccc2)NC(=O)OC(C)(C)C)o1 | -31.4 | · | i | 6.0 | -0.6 | -3.5 | -6.0 | 10.4
COc1ccc(N2CCN(Cc3cc(=O)oc4ccc(Cl)cc34)CC2)cc1 | -17.1 | -6.1 | i | -5.2 | 2.5 | 3.2 | -2.4 | -3.8
Cc1ccccc1CSc1nc2c(c(=O)[nH]1)CCC2 | -1.8 | · | i | 6.6 | · | · | -14.5 | -0.7
Clc1ccc(-n2ncc3c(N4CCCC4)ncnc32)cc1 | · | -231.3 | i | -4.4 | 3.6 | 0.7 | 1.6 | -3.5
CCCCN(C)c1c(C)nc2ccc(C(=O)N3CCN(C(C)=O)CC3)cn12 | -28.0 | 23.7 | · | · | 4.3 | -10.2 | · | ·
c1ccc(SCc2nc(-c3ccncc3)n[nH]2)nc1 | · | 11.4 | i | -14.2 | -4.1 | -11.3 | -3.5 | 23.3
COc1cccc(NC(=S)N2CCn3cccc3C2c2cccnc2)c1 (stereo unspecified) | · | -13.2 | i | 4.1 | -2.1 | 0.6 | -10.2 | -5.0
CN1CCN(CCCNC(=O)c2ccc(CS(=O)(=O)c3ccc(Br)cc3)o2)CC1 | 1.4 | -7.2 | i | 5.4 | 1.3 | 0.3 | 3.7 | 0.4
COc1ccc(C)cc1NC(=O)CCc1c(C)nn(-c2ccc(N3CCCCC3)nn2)c1C | -13.5 | -31.0 | i | -8.5 | 2.4 | 2.3 | -5.4 | -8.6
O=C(COC(=O)Cc1c(Cl)cccc1Cl)Nc1ccccc1-c1ccccc1 | · | 28.7 | i | 4.8 | -3.0 | -3.6 | 12.0 | -2.2
O=C1OCc2nc3cc4c(cc3c(-c3ccc(F)cc3)c21)OCO4 | -21.5 | 1.0 | i | 20.8 | -1.8 | 1.3 | -9.7 | -2.2
O=C(COC(=O)CCc1c[nH]c2ccccc12)NCCc1ccccc1 | -16.1 | · | i | · | 2.5 | -1.5 | -5.6 | ·
COCCNC(=O)c1cc(-c2ccncc2)nc2ccc(S(=O)(=O)N3CCOCC3)cc12 | · | -3.6 | i | 1.0 | -2.3 | 1.8 | 13.2 | 0.3
O=C(CCn1c(=O)oc2ccccc21)Nc1cccc(Cl)c1 | -8.3 | 7.8 | i | -1.4 | 0.1 | 0.8 | -9.2 | -5.7
Cc1[nH]c2ccccc2c1C(=O)CCl | · | -36.2 | i | 5.7 | 3.4 | 3.9 | · | 4.8
CCOC(=O)CNc1nc(OCC#N)nc(N2CCOCC2)n1 | -20.2 | · | i | 1.4 | 1.1 | 1.0 | -6.6 | -9.9
COC(=O)CSc1ncnc2scc(-c3ccccc3)c12 | -10.0 | -3.3 | i | -8.0 | -1.0 | 2.8 | -7.6 | -0.9
O=C(NC(NC(=S)N1CCOCC1)C(Cl)(Cl)Cl)c1cccc2ccccc12 (stereo unspecified) | -20.7 | -23.5 | i | -4.2 | 2.8 | 2.6 | -13.8 | 7.6
CCOC(=O)c1ccc(/C=C2\c3ccccc3C(=O)N2c2ccccc2)cc1F | -1.8 | 5.9 | · | · | 3.6 | -3.3 | -2.7 | ·

Later entries
SMILES | UUG fidelity | HIV Env fusion | Rce1 inhib | PABP polyA inh | MT1-MMP act inh | MT1-MMP act inh RFP | CSC inhib | eIF4H FP inh
O=C(NCc1ccc2c(c1)OCO2)c1cc(COc2c(F)cccc2F)on1 | 9.8 | 0.3 | i | 5.6 | 0.2 | 4.0 | 13.6 | -2.4
CCCc1cc(=O)[nH]c(SCC)n1 | -11.5 | · | i | -5.1 | 1.7 | -0.5 | 1.4 | -1.0
COc1ccc(-c2noc(N3CCCC(C(=O)Nc4ccc(C(C)=O)cc4)C3)n2)cc1 (stereo unspecified) | -6.2 | 5.4 | i | -1.0 | 0.1 | -7.2 | 2.5 | -12.9
Cc1cc(=O)oc2cc(NC(=O)C3COc4ccccc4O3)ccc12 (stereo unspecified) | -21.8 | · | i | 8.9 | -2.3 | -2.7 | · | 3.6
CCCC(=O)NCc1cc(-c2nn(C)c(=O)c3ccccc23)ccc1OC | -9.1 | 6.5 | i | -3.3 | -1.8 | 0.9 | -9.7 | 11.3
Cc1ccc(C(=O)Nc2ccccc2C(=O)O)cc1NC(=O)COc1c(C)cccc1C | 5.1 | -11.6 | i | 11.8 | 6.5 | 0.4 | -17.1 | -4.7
COc1ccc(NC(=O)C2CCCCN2S(=O)(=O)c2ccc(F)cc2)cc1 (stereo unspecified) | -17.3 | -16.5 | i | -0.3 | 2.1 | -0.4 | -13.1 | 0.5
CC(=O)Nc1ccc(-c2nnn(CC(=O)c3ccc(F)cc3)n2)cc1Cl | 2.9 | 14.4 | i | -7.1 | 2.0 | 4.6 | -6.4 | -13.9
Cc1ccc(C(=O)N2CCN3C(=O)c4ccccc4C23c2ccc(Cl)cc2)cc1 (stereo unspecified) | · | · | i | 3.6 | 0.5 | -0.6 | 21.4 | -2.2
CC(C)N1CCc2c(sc(NC(=O)c3cc4cc([N+](=O)[O-])ccc4s3)c2C(N)=O)C1 | -8.7 | 19.8 | i | -7.0 | -56.2 | -1.9 | · | -2.5
C[C@H](CO)N1C[C@H](C)[C@@H](CN(C)Cc2ccncc2)Oc2c(NS(=O)(=O)c3cccs3)cccc2C1=O | -19.7&-12.2 | -10.6 | · | · | 3.9 | 6.0 | · | ·
Nc1c(NC(=O)CC[n+]2ccccc2)cccc1[N+](=O)[O-] | · | · | i | 28.7 | -1.1 | -0.5 | -7.9 | -1.7
C[C@@H]1CCCCO[C@@H](CN(C)Cc2ccc(C(F)(F)F)cc2)[C@@H](C)CN([C@H](C)CO)C(=O)c2cc(N(C)C)ccc2O1 | 3.2&-5.1 | -13.7 | · | · | -11.4 | -17.3 | · | ·
C=CCN(CC(=O)O)S(=O)(=O)c1ccccc1C(F)(F)F | · | 1.5 | i | -7.3 | -0.8 | 5.5 | -8.5 | 6.6
Cc1ccc2[nH]c(=O)c(CN(Cc3cccs3)Cc3nnnn3CC3CCCO3)cc2c1 (stereo unspecified) | -7.7 | 16.8 | i | -1.3 | -0.4 | 0.5 | -9.1 | -5.1
Cc1nnc(SCCn2c(N3CCC(C)CC3)nc3c2c(=O)n(C)c(=O)n3C)s1 | 0.2 | -102.1 | i | · | -1.3 | -0.7 | -11.8 | ·
CCN(CC)S(=O)(=O)c1cccc(C(=O)Nc2ccc(Cl)cn2)c1 | -8.8 | -49.0 | i | -3.4 | -1.8 | -12.0 | · | 4.5
O=C(NCCN1CCOCC1)C(=O)NCC1OCCN1S(=O)(=O)c1ccc(Br)cc1 (stereo unspecified) | -4.7 | · | i | -11.7 | 1.1 | 2.5 | -6.2 | -8.2
CC1=NN(C(=O)c2cccnc2)C(O)(C(F)(F)F)C1 (stereo unspecified) | -12.7 | -3.5 | · | -10.0 | -1.1 | 4.1 | -5.3 | -0.8
Cc1cc(N2CCN(C)CC2)nc2ccc(NC(=S)N3CCCCCC3)cc12 | -25.3 | -0.3 | i | 4.9 | 0.5 | -0.8 | 44.2 | -1.8
Cc1c(NC(=O)CCCN2C(=O)c3cccc4cccc(c34)C2=O)c(=O)n(-c2ccccc2)n1C | · | 4.2 | i | -6.0 | -2.9 | -4.6 | 0.4 | 5.5
N#CCCN(Cc1ccccc1)S(=O)(=O)c1cccs1 | -2.8 | 8.4 | i | 5.7 | -1.6 | -2.4 | · | 0.6
Cc1cc(C)c2c(CN3CCCCC3C)cc(=O)oc2c1 (stereo unspecified) | -21.6 | 9.3 | i | 1.0 | -7.7 | -3.4 | -7.3 | -5.5
CCCc1cc(-c2[nH]ncc2-c2ccc3c(c2)OCCCO3)c(O)cc1O | -19.1 | 7.2 | i | -1.7 | -6.6 | -9.0 | 94.6* | -0.3
Cc1ccc(O)c(C(CC(=O)NC2CCCCC2)c2ccccc2)c1 (stereo unspecified) | -6.0 | 9.4 | i | -18.0 | -2.7 | -8.1 | -10.5 | -2.7

Additional results
SMILES | UUG fidelity | HIV Env fusion | Rce1 inhib | PABP polyA inh | MT1-MMP act inh | MT1-MMP act inh RFP | CSC inhib | eIF4H FP inh
CCOc1cc(/C=C/C(=O)O)ccc1OCCO | · | 0.1 | i | -1.4 | 0.3 | 1.0 | -7.5 | -4.0
Cc1n[nH]c(=O)nc1NCc1ccccc1Cl | · | · | i | 1.3 | -3.2 | 1.7 | 2.0 | 7.0
CCC(=O)NCCc1cc2cc(C)c(C)cc2[nH]c1=O | · | · | i | -7.9 | 2.2 | -0.4 | -10.4 | -6.6
Cc1cccc(Nc2ccc(C(=O)O)cc2[N+](=O)[O-])c1C | -11.4 | 4.3 | i | 3.3 | 6.3 | 4.2 | -4.5 | -8.8
O=C1N/C(=N\N=C\c2cccs2)SC1Cc1ccc(Cl)cc1 (stereo unspecified) | -11.4 | -15.1 | i | 4.1 | -3.1 | 5.6 | 24.2 | 8.8
Cc1ccc(-n2ccc(=O)c(-c3ccnc(SCc4cccc(Cl)c4)n3)n2)cc1 | -16.8 | · | i | 0.7 | -1.5 | -8.8 | 2.4 | 1.1
C=CCCCCCCCCC(=O)NNC1CC(=O)N(c2ccccc2)C1=O (stereo unspecified) | 8.4 | -10.8 | i | 10.0 | 5.2 | 3.1 | 7.1 | -0.7
CC(C)OCCCNC(=O)c1ccccc1Oc1ccccc1 | -4.9 | · | i | 2.7 | 6.0 | 7.1 | -10.7 | -4.7
COc1cccc(/C=N/NC(=O)Cn2nc([N+](=O)[O-])cc2C)c1 | · | -1.2 | i | 9.5 | 2.9 | 5.1 | 18.5 | 4.8
Cc1cc(C(=O)COc2ccc(Cl)cc2Br)c(C)n1C | · | -3.5 | i | -9.3 | -5.0 | -4.4 | 9.4 | -9.3
O=C(N/N=C/c1c(O)n(-c2ccccc2Cl)c(=O)c2ccccc12)C1COc2ccccc2O1 (stereo unspecified) | · | · | i | -13.1 | -5.3 | -3.4 | 25.4 | 0.5

One compound at a time (already shown). Order of values: UUG fidelity | HIV Env fusion | Rce1 inhib | PABP polyA inh | MT1-MMP act inh | MT1-MMP act inh RFP | CSC inhib | eIF4H FP inh
`CC(C)(C)OC(=O)N[C@@H](CCCCNC(=O)OCc1ccccc1)c1nnc([C@H](CCCCNC(=O)OCc2ccccc2)NC(=O)OC(C)(C)C)o1` is listed with -31.4 | · | i | 6.0 | -0.6 | -3.5 | -6.0 | 10.4
`COC(=O)CSc1ncnc2scc(-c3ccccc3)c12` is listed with -10.0 | -3.3 | i | -8.0 | -1.0 | 2.8 | -7.6 | -0.9
`O=C(CCn1c(=O)oc2ccccc21)Nc1cccc(Cl)c1` is listed with -8.3 | 7.8 | i | -1.4 | 0.1 | 0.8 | -9.2 | -5.7
`CC(C)N1CCc2c(sc(NC(=O)c3cc4cc([N+](=O)[O-])ccc4s3)c2C(N)=O)C1` is listed with -8.7 | 19.8 | i | -7.0 | -56.2 | -1.9 | · | -2.5
